TRPML1 agonist: agonists of human TRPML1 channel; Q9GZU1; TRPML1-expressing cells, Ca2+ dye fluorescence, FDSS; host cell line not named in the record; reference of the full effect not given here; activation, % (concentration not given with the values); 410,000 tested, 0.12% active; in the data active = activation above about 50%; inconclusive = about 30% to 50%; inactive = below about 30%; further: 0% is about no effect; the text of the record puts the active cut at 80%
Target sequence (Q9GZU1 whole entry, looked up): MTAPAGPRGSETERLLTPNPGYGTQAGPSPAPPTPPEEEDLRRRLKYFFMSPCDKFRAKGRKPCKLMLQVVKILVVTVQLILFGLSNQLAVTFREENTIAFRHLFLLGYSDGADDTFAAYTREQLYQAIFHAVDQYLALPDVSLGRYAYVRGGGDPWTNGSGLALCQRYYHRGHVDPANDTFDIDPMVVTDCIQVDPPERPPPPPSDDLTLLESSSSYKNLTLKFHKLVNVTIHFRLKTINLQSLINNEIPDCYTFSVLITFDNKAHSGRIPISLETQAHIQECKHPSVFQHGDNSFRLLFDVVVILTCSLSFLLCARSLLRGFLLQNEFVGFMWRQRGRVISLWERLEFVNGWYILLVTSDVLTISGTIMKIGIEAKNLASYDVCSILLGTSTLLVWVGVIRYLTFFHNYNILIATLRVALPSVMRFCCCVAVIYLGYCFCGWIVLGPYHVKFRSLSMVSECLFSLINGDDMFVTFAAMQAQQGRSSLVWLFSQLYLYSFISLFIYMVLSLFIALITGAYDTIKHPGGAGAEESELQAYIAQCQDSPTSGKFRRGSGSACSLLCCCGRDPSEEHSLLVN
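Calcium fluorescence on an FDSS kinetic reader gave the read-out. Tet-induced TRPML1-DL cells were plated overnight, dye-loaded (Ca8 with quencher, 45-90 min, room temperature, dark), then read 110 s after compound addition, and again 110 s after 4uM final 54-4 (EC80).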
TRPML1 blocker: human mucolipin-1 channel inhibition; AID 624415; TRPML1-inducible cells, Ca2+ dye fluorescence, FDSS; hits give low values; inhibition of EC80 agonist-evoked calcium signal; 390,000 tested, 0.02% active; activity change, negative = inhibition, % (no concentration beside the values); in the data active means activity change below about -50%; inconclusive means about -30% to -50%; inactive means above about -30%;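 further: stimulus is agonist 54-4 at its EC80 concentration; on the % scale 0 is the no-effect control and ±100 the full control effect; compound concentration not given in the record; the text of the record puts the active cut at -80%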
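Calcium fluorescence in TRPML1-DL cells induced overnight with Tet: a 110 s read after compound pin addition, then a 110 s antagonist read after challenge with 54-4 at 4 uM final (EC80).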
TRPV1 potentiator: human TRPV1 potentiation; TRPV1-expressing cells, Fluo-8 calcium influx, capsaicin EC20 potentiation; host cell line not named in the record; control for the full effect not named in the record; potentiation, % at 8.33 µM; 320,000 tested, 0.02% active; active means potentiation above 80%; inconclusive means 30% to 80%; inactive means below 30%; further: 0% is about no effect
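Cells expressing TRPV1 were dye-loaded with Fluo-8 and read kinetically: 10 s baseline, 3 min after compound (agonist portion), then 2 min after EC20 capsaicin (allosteric enhancer portion). Calcium-bound dye fluorescence at 480/520 nm.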
Sfp inh: blocks B. subtilis Sfp PPTase activity; Q9F4F7; Biochemical Sfp PPTase activity, qHTS; Potency, µM, for inactives: max response, negative = inhibition, usual class: inhibitors; 310,000 tested, 3.5% active; AID 1490; active means well fitted inhibition curve with a large enough effect; inconclusive means small, poorly fitted or top-dose-only effect, or another doubt; inactive means no such curve, though single readings can be large or run the other way;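 further: the enzyme is Sfp with the accession as filed and its product quenches rhodamine fluorescence; potency means the concentration at half of the fitted maximal effect; 0% = enzyme reaction without inhibitor and -100% = no enzyme wells; top concentration of the series not given in the record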
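After 15 min at room temperature with compound, 15 nM Sfp received 5 uM rhodamine-CoA plus 12.5 uM BHQ-2-ybbR (50 mM Hepes pH 7.6, 10 mM MgCl2). Rate came from the fluorescence difference over 30 min, ex 525/em 598 nm.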
ClpP mod: qHTS Assay for Activators of ClpP | ATP-dependent Clp protease proteolytic subunit (Bacillus subtilis (strain 168)), P80244 | purified B. subtilis ClpP, FRET peptide cleavage, 20 min | Potency, µM (titrated, usually from 57.5 µM), inactives show at the highest dose activity change, negative = active | 340,000 tested, 1.9% active | AID 651965, 2013; active = well fitted falling curve with a large enough effect; inconclusive = small, poorly fitted or top-dose-only effect; inactive = no such curve, though single readings can be large or run the other way; further: potency means the concentration at half of the fitted maximal effect; the source files actives as falling curves though it sought activators and does not explain the sign; nearly all actives have a fitted effect of over 65% in size; many hits overshoot -100%
Target sequence (P80244 whole entry, looked up): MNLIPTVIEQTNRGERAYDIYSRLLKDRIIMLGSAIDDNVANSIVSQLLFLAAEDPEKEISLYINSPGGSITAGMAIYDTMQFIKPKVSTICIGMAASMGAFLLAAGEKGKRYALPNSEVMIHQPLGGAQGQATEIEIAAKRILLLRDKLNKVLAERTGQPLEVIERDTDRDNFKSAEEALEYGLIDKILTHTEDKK
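Purified B. subtilis ClpP, 10 microg/mL final in Tris/HCl pH8 with KCl, BSA, glycerol and Tween-20, cleaved an Abz/nitrotyrosine-quenched decapeptide. Fluorescence (ex 320, em 430) was read at 0 and 20 min at room temperature. Delta was normalized to 5.8 microM ADEP and DMSO/no-enzyme controls.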
PINK1 modulator: PINK1 expression modulation; 410,000 tested, 0.2% active; Potency, µM (doses to about 76.6 µM), for inactives: at the highest dose activation (PINK1 increase), usual class: activators; PINK1 immunofluorescence, high-content cytometry, 24 h; active = well fitted activation curve with a large enough effect; inconclusive = small, poorly fitted or top-dose-only effect; inactive = flat fitted curve, though single readings scatter; cell line not stated here;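 further: potency means the concentration at half of the fitted maximal effect; % of control where 0% means no effect; nearly all actives have a fitted effect of over 65% in size; a mitochondrial uncoupler was the plate control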
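Decision-based qHTS: stable cells, 24 h exposure to five compound concentrations, CCCP as control. Fixed cells stained for PINK1 plus nuclear, mitochondrial and cell markers, cytometer read.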
Menin-MLL FL inh: menin-MLL binding inhibition, fluorescein peptide; Fluorescence polarization, fluorescein-MLL peptide displacement from menin; FP activity change, % at 61.4 µM; 290,000 tested, under 10 active; inconclusive = falling polarisation curve, or a change in total fluorescence; inactive = total fluorescence flat and polarisation flat or rising; no compound was filed as active; the % refers to the polarisation; negative = inhibition;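 further: % of control where 0% means no effect; inhibitors lower the polarisation; unlabelled MLL peptide was the positive control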
The depositor's hits bear a star; ? = inconclusive; / = no result given; & = joins results of further samples; [ ] = dose if it differs, or a comment. This is a random part of the collection. About 4.4% of those tested had a hit in this group.

Second line of a record: TRPML1 agonist, TRPML1 blocker, TRPV1 potentiator, Sfp inh, ClpP mod, PINK1 modulator, Menin-MLL FL inh
[1] COc1cc(CNc2nnnn2C)cc(OC)c1OC
 : /, /, -9.5, 4.9%, 0.7%, 1.6%, -8.1
[2] COc1cc(OC)c(N(C)C(=O)C2CCCN(c3ncnc4c3nc3n4CCCCC3)C2)cc1Cl (configuration not stated)
 : -1.0, -7.6, /, /, -2.0%, 6.0%, /
[3] CCC(=O)NC(c1ccc(C)cc1)c1ccc2cccnc2c1O (configuration not stated)
 : -0.3, -3.8, 1.6, 18.1%, /, 2.2%, -1.2
[4] CCOC(=O)C1(CC2CCCCO2)CCN(S(=O)(=O)c2cccc(F)c2)CC1 (configuration not stated)
 : -0.8, 5.5, -0.1, 2.0%, 0.5%, -1.0%, -0.5
[5] COCCn1cc(C(=O)c2cc(Br)ccc2O)cc(C#N)c1=O
 : -0.3, 1.2, -11.5, 4.9%, /, -0.2%, 13.2
[6] COc1ccc(CC(=O)NNC(=O)CSc2nc(C)c(C)c(=O)[nH]2)cc1
 : -0.1, 27.1, 6.6, 89.1µM*, /, -1.5%, -1.9
[7] COc1ccc(-n2c(O)cnc2Nc2nc(C)cc(C)n2)cc1OC
 : 0.2, 1.0, 4.7, -13.7%, 0.2%, /, -0.5
[8] Cc1cc(C(F)(F)Cl)n2ncc(-c3ccccn3)c2n1
 : 1.2, -9.1, 6.1, 2.5%, -6.5%, -0.3%, 2.3
[9] CC1CCCCC1NC(=O)CN(C)S(=O)(=O)c1ccc2c(c1)c(=O)n(C)c(=O)n2C (configuration not stated)
 : -0.1, -1.6, 10.1, 10.1%, -7.3%, -0.1%, 2.4
[10] c1coc(CNc2c3c(nc4ncnn24)CCC3)c1
 : 0.0, 14.0, 12.0, -17.9%, 0.1%, -5.4%[38.3 µM], 1.6
[11] CCC(=O)N1CCc2cc(Br)cc(S(=O)(=O)NCc3ccccc3)c21
 : 2.0, -4.1, /, /, -2.7%, 1.3%, /
[12] CCOC(=O)/C(C#N)=C(\N)C(C)C(=O)Nc1ccccn1 (configuration not stated)
 : 0.6, -11.4, 6.3, 9.6%, -2.2%, -3.0%, 0.9
[13] Cc1ccc2nc(-c3ccccc3O)c(Nc3ccc4c(c3)OCCO4)n2c1
 : 0.5, -1.1, -6.6, 24.9%, ?, 1.8%, 2.9
[14] O=S(=O)(NCC1CCCO1)c1ccc(NS(=O)(=O)c2ccc(F)cc2)cc1 (configuration not stated)
 : -0.2, -4.4, -4.7, 21.4%, /, 0.1%, 4.0
[15] CCOc1ccc(-n2c(=O)cc(N3CCN(c4ccc(F)cc4)CC3)[nH]c2=O)cc1
 : 0.0, -25.6, -14.3, 0.5%, 0.2%, -3.8%[38.3 µM], -0.7
[16] O=C(Nc1nc(-c2ccc(F)cc2)cs1)c1cnccn1
 : 1.2, ?, -13.8, -6.1%, -0.4%, 11.4%, 53.4[activator]
[17] CC1CN(C(=O)c2ccc(COc3ccc4ccccc4c3)o2)CC(C)O1 (configuration not stated)
 : 0.1, 15.3, ?, -28.5%, 1.1%, 1.7%, 2.0
[18] O=C(NC(NC1CCS(=O)(=O)C1)C(=O)c1cccs1)c1ccccc1 (configuration not stated)
 : -1.2, -7.8, ?, 10.9%, -2.8%, -3.7%, 1.8
[19] O=C(c1ccc(S(=O)(=O)Cc2cc(F)ccc2F)c([N+](=O)[O-])c1)N1CCCC1
 : 0.3, 15.6, 1.3, -8.5%, /, -0.8%, -3.5
[20] Cc1ccc(O)c(C(=O)c2cnc3onc(-c4ccc(F)cc4)c3c2)c1
 : 4.6, 8.6, 3.3, 4.8%, -4.0%, 4.3%, /
[21] CC(OCc1ccccc1)C(NC(=O)OC(C)(C)C)C(=O)NC1COC2CC(n3cc(F)c(=O)[nH]c3=O)OC12 (configuration not stated)
 : -0.1, -4.8, /, 2.7%, /, /, 5.8
[22] O=C(CCN1CCC(c2cccs2)=N1)c1cccs1
 : 4.0, -14.8, -0.2, -3.0%, 1.9%, 0.6%, 20.3
[23] COc1ccc(NS(=O)(=O)c2cc(NC(=O)c3cnccn3)ccc2OC)cc1Br
 : -0.4, 5.7, 10.8, 9.8%, /, 5.6%, 1.0
[24] CCCNC(=O)c1cc(-c2ccc(OC)cc2)n(CCCOC)c1C
 : 1.8, 38.2, 25.1, 1.7%, -2.2%, -1.1%, -2.3
[25] Cc1cccc(NC(=S)NCCc2ccc(Cl)cc2)c1C
 : /, /, -30.9, 13.0%, -4.7%, 20.8%, -9.6
[26] COc1cc2c(cc1OC)-c1nnc(-c3ccco3)n1C1(CCCC1)C2
 : -1.9, 22.7, -1.9, 15.2%, 31.6µM*, -0.5%, 1.2
[27] O=C(COC(=O)Cc1ccccc1)NCc1ccc2c(c1)OCO2
 : -0.2, 9.6, /, /, 0.3%, -1.2%, /
[28] Cc1ccccc1Cn1c(=O)n(CC2CCC(C(=O)NCCc3ccccc3)CC2)c(=O)c2ccccc21 (configuration not stated)
 : 0.8, -7.1, 4.4, 10.6%, 1.2%, 3.4%, 2.1
[29] CC(c1ccc2c(c1)OCO2)n1c(=S)[nH]c2ccccc2c1=O (configuration not stated)
 : 0.5, 1.5, -4.7, /, -1.1%, 2.1%, /
[30] Cc1ccc(/C=C2/Sc3ccc(C(=O)N4CCN(C)CC4)cc3NC2=O)cc1
 : 0.4, 26.1, 3.9, -5.9%, -3.0%, -1.0%, -19.6
[31] CC(=O)c1cccc(NC(=O)c2cc(-c3ccc(C)cc3)on2)c1
 : 1.1, -8.3, 23.3, 3.3%, -0.3%, -0.2%[38.3 µM], 0.1
[32] CCc1ccc(OCc2cc(=O)n3cc(C)sc3n2)cc1
 : 1.7, 6.8, /, /, -1.1%, 17.1%, /
[33] CC[C@@H]1Cc2cc(O)ccc2C2=C1c1ccc(O)cc1C[C@H]2CC
 : -0.3, -2.5, -4.6, -0.8%, 4.4%, 4.0%, -4.1&-0.4
[34] Cc1ccccc1OCCn1c(CCNC(=O)C2CCCCC2)nc2ccccc21
 : -0.2&3.1, 14.7, -1.3, /, 1.6%&1.2%, 0.5%&4.3%, /
[35] C[C@H](CO)N1C[C@H](C)[C@H](CN(C)Cc2ccc(-c3ccccc3)cc2)Oc2ccc(NS(=O)(=O)c3ccccc3)cc2CC1=O
 : 0.0, -9.2, /, /, -2.3%, 3.0%, /
[36] Cc1ccc(S(=O)(=O)N2CC3CCC2C3)cc1 (configuration not stated)
 : -0.2, -17.0, -5.6, 9.7%, -0.7%, 3.9%, -0.2
[37] Nc1nnc(SCC(=O)Nc2sc3c(c2C(=O)c2ccccc2)CCCC3)s1
 : -0.4, -6.9, -11.3, -16.7%, 0.6%, -0.7%, 5.0
[38] COc1cccc(C(=O)NCCCN2CCN(CCCNC(=O)c3cccc(OC)c3)CC2)c1
 : 1.1, -5.3, 1.1, 8.7%, 1.4%, 1.7%, 10.2
[39] Cc1ccc(-n2nc3c(=O)n(CCCC(=O)NCc4ccco4)nc(C)c3c2C)cc1
 : -0.1, 15.9, 0.5, 14.9%, -2.7%, -0.3%, 0.6
[40] CCOC(=O)C1CCN(CC(O)COCc2ccccc2)CC1 (configuration not stated)
 : 0.0, -2.1, 2.2, ?, /, -0.1%, /
[41] O=C(Nc1cccc(C(F)(F)F)c1)C(Sc1cccc[n+]1[O-])c1ccccc1 (configuration not stated)
 : 0.5, 1.9, 0.6, -0.8%, -2.9%, 2.4%, 3.9
[42] CC/C(C)=N/Nc1cccc([N+](=O)[O-])c1
 : 1.3, -5.4, 0.8, 21.7%, -0.8%, 1.8%, 0.0
[43] CC(=O)Nc1cccc(-c2ccnc3c2CC(C(=O)NCCN(C)C)O3)c1 (configuration not stated)
 : -0.2, /, /, /, -27.5%, -0.7%, /
[44] O=C(NC1CCN(Cc2ccccc2)CC1)C1CCN(c2nnc(-n3cccc3)s2)CC1
 : -0.1, -3.0, -7.8, 2.6%, 0.7%, 1.4%, 0.5
[45] O=C1CN(C(=O)COc2ccccc2)CCN1
 : -0.5, -1.8, -13.3, 14.5%, 0.0%, 0.8%, 2.0
[46] O=C(COC(=O)Cc1ccc(Cl)cc1Cl)NCCC1=CCCCC1
 : -0.6, -2.5, -12.1, -1.7%, /, 0.9%, 1.3
[47] Cc1noc(C)c1S(=O)(=O)Nc1ccc2c(c1)CC(=O)N([C@H](C)CO)C[C@H](C)[C@H](CN(C)S(=O)(=O)c1ccc(F)cc1)O2
 : -0.4, -9.0, /, /, 1.0%, 2.8%, /
[48] Cc1cc(C(=O)COC(=O)/C=C/c2ccco2)c(C)n1C
 : 0.1, 4.4, /, /, /, -0.6%, /
[49] COc1cc(NC(=O)C2CCCO2)c(C(=O)O)cc1OC (configuration not stated)
 : 0.4, 1.1, 1.4, -2.4%, -5.4%, 6.3%[38.3 µM], 4.5
[50] O=C(Cc1c(F)cccc1Cl)Nc1ccc(-n2cnnn2)cc1
 : -0.4, -7.5, 2.6, 10.4%, /, 3.2%, -0.6
[51] COc1ccc(N(CC(=O)NC2CCCCC2)S(=O)(=O)c2cccs2)cc1
 : 0.1, 13.2, /, /, -1.8%, 7.1%, /
[52] C=CCN(CC=C)C(=O)CCc1nnc(CCc2c[nH]c3ccccc23)o1
 : -0.7, 2.2, -0.5, 17.5%, /, -0.7%, 1.2
[53] CCOc1ccccc1CNCCO
 : 0.4, -8.6, -7.5, -6.2%, -1.9%, -20.3%[38.3 µM], 0.0
[54] COc1ccc(NC(=O)COC(=O)Cc2cccs2)cc1OC
 : -0.2, 10.1, -21.8, /, /, -3.1%, /
[55] O=C(CSc1nnc(COc2ccc(Cl)cc2)o1)Nc1ccc(N2CCOCC2)cc1
 : -0.3, 27.7, -3.9, /, 1.5%, 1.8%, /
[56] COc1ccccc1NC(=O)c1ccc(COc2ccccc2OC)o1
 : 1.9, -15.4, -2.4, -2.8%, -1.1%, -3.2%[38.3 µM], 0.4
[57] O=C(NCc1ccc(F)cc1)C1CCCN(S(=O)(=O)c2cccc3nonc23)C1 (configuration not stated)
 : 0.3, -1.4, -3.1, 4.5%, -2.0%, 11.0%, /

Source: PubChem (National Center for Advancing Translational Sciences (NCATS))
